Assay outcomes (PubChem)
RE007 growth inh: less growth of the S. pombe RE007 Vpr strain. Potency, µM (highest dose often 92.2 µM), for the others: at the top dose activity change, negative = less growth. 360,000 compounds, 0.21% hits. S. pombe RE007 Vpr strain, BacTiter-Glo ATP luminescence, 24 h; control for the full effect not named in the record. AID 651644; active = well fitted falling curve with a large enough effect; inconclusive = small, poorly fitted or top-dose-only effect; inactive = no such curve, though single readings can be large or run the other way;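 further: on the % scale 0 is the no-effect control and ±100 the full control effect; nearly all actives have a fitted effect of over 50% in size; the assay follows cell death caused by Vpr and the record does not say whether a fall means rescue or toxicity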
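Fission yeast RE007 carrying one integrated HIV-1 vpr copy, seeded at OD 0.01 in PMG+AL medium with 23 nL pinned compound. Grown 24 h at 30 degrees; viability read by BacTiter-Glo luminescence after 5 min.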
SARS PLpro yeast: SARS-CoV PLP inhibition in yeast. S. cerevisiae expressing SARS-CoV PLpro, growth rescue; control for the full effect not named in the record. Potency, µM (titrated, usually from 32.9 µM), without a hit: at the highest dose activity, positive = growth rescue. 330,000 compounds, 0.19% hits; active means well fitted rising curve with a large enough effect; inconclusive means small, poorly fitted or top-dose-only effect; inactive means no such curve, though single readings can be large or run the other way; further: 0% is about no effect; nearly all actives have a fitted effect of over 55% in size; growth read by luminescence after 48 h
MARV entry inh: Marburg virus entry inhibition; Marburg virus pseudotyped entry inhibition, cell reporter; control for the full effect not named in the record; about a third of the inactives were read at about 46 µM; Potency, µM (highest dose often 37.8 µM), without a hit: at the top dose activity change, negative = inhibition, actives largely listed as inhibitors; 300,000 compounds, 1.8% hits; active = well fitted inhibition curve with a large enough effect; inconclusive = small, poorly fitted or top-dose-only effect, or effect the other way; inactive = flat fitted curve, though single readings scatter; tested in HEK293 cells; about a fifth of its hits are not listed in these tables; further: on the % scale 0 is the no-effect control and ±100 the full control effect; luciferase read-out
Cruzain inh Det: blocks cruzain activity in presence of Triton detergent. P25779. purified cruzain, Z-FR-AMC fluorescence, 0.01% Triton. Potency, µM, for the others: max response, negative = inhibition, most hits filed as inhibitors. 200,000 compounds, 0.43% hits;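 further: plate controls were neutral wells for no effect and buffer without enzyme for full effect; nearly all actives have a fitted effect of over 40% in size; top concentration of the series not given in the record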
Target sequence (P25779 123-467 limits assumed): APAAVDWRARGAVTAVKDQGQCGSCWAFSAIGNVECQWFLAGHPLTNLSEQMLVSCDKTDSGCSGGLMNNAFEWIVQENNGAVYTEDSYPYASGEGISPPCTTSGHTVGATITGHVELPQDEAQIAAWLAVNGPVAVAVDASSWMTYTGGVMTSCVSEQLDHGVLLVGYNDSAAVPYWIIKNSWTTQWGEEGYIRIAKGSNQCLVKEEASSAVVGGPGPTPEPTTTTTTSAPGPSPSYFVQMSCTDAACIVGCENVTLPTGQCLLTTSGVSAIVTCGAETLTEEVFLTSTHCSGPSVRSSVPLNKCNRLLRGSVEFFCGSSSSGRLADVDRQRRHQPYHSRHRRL
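Z-FR-AMC hydrolysis (2 uM substrate) by cruzain (1.5 nM) monitored kinetically at ex 360/em 450 nm after 15 min room-temperature compound exposure; 0.01% Triton X-100, pH 5.5, 5 mM DTT.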
Lassa entry inh: inhibitors of Lassa virus binding or cell entry. Lassa virus pseudotype entry inhibition, cell reporter; control for the full effect not named in the record. Potency, µM (top dose mostly 37.9 µM), without a hit: top-dose activity change, negative = inhibition, actives largely listed as inhibitors. 300,000 compounds, 1.2% hits. AID 540256; active means well fitted inhibition curve with a large enough effect; inconclusive means small, poorly fitted or top-dose-only effect, or effect the other way; inactive means flat fitted curve, though single readings scatter; tested in HEK293 cells; further: on the % scale 0 is the no-effect control and ±100 the full control effect; nearly all actives have a fitted effect of over 50% in size; luciferase read-out
2A StopGo: FMDV 2A StopGo reporter, luciferase signal; human cells with a luciferase reporter of 2A StopGo recoding; control for the full effect not named in the record; AID 1159524; 410,000 compounds, 1.2% hits; Potency, µM (top dose mostly 57.9 µM), without a hit: at the top dose signal change, negative = less light; active = well fitted falling curve with a large enough effect; inconclusive = small, poorly fitted or top-dose-only effect; inactive = no such curve, though single readings can be large or run the other way; tested in HEK293T cells; further: on the % scale 0 is the no-effect control and ±100 the full control effect; nearly all actives have a fitted effect of over 45% in size; luciferase light after 4 h
NS1 inh: inhibitors of influenza NS1 protein function | S. cerevisiae slowed by influenza A NS1, growth recovery by OD600 | Potency, µM (titrated, usually from 46.1 µM), for the others: at the highest dose activity, positive = more growth | 270,000 compounds, 0.4% hits; active means well fitted rising curve with a large enough effect; inconclusive means small, poorly fitted or top-dose-only effect; inactive means no such curve, though single readings can be large or run the other way; further: nearly all actives have a fitted effect of over 50% in size
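Recovery from NS1-induced slow growth read by OD600 in budding yeast switched to galactose assay medium (pH 6.0, -URA) at 1:100 dilution. Compound 23 nl per well; the matching strain lacking NS1 serves as control.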
Cruzain inh noDet: inhibitors of Trypanosoma cruzi cruzain without detergent | P25779 | purified cruzain, Z-FR-AMC fluorescence, no detergent | Potency, µM, without a hit: max response, negative = inhibition, most hits filed as inhibitors | 200,000 compounds, 2.3% hits;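 further: plate controls were enzyme without inhibitor for no effect and buffer without enzyme for full effect; nearly all actives have a fitted effect of over 40% in size; top concentration of the series not given in the record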
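Purified cruzain at 1.5 nM, pre-incubated 15 min with compound at room temperature in 100 mM sodium acetate pH 5.5, 5 mM DTT, 0.00005% Triton X-100. Reaction started with 2 uM Z-FR-AMC; AMC fluorescence increase over 60 s gives rate.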
The depositor's hits bear a star; ? = inconclusive; / = not tested or not shown; & = joins results of further samples; [ ] = another dose, or the depositor's remark. Unless noted, the call rests on the fitted dose curve; in most records, active means well fitted curve in the direction sought with a large enough effect; inconclusive means small, poorly fitted or top-dose-only effect, or another doubt; inactive means no such curve, though single readings can be large; an effect the other way counts as inactive or inconclusive. Potency means the concentration at half of the fitted maximal effect.

SMILES	RE007 growth inh	SARS PLpro yeast	MARV entry inh	Cruzain inh Det	Lassa entry inh	2A StopGo	NS1 inh	Cruzain inh noDet
COc1ccc2c(c1)c1nnc(SC)nc1n2C	-16%	22%	31%	-4.6%	12%	32%[activator]	-85%	-1%
CCOC(=O)[C@@H]1[C@H]2COc3ccc(Br)cc3[C@H]2N2C(=O)N(c3cccc(Cl)c3)C(=O)[C@]12C	-2%	-1%	/	/	/	-17%	-22%	/
CCOC(=O)C1(Cc2cccc(OC)c2)CCCN(C(=O)c2ccccc2C)C1 (stereo not given)	16%	1%	-15%[46.1 µM]	/	16%	23%	-2%	/
CN=c1oc2ccc(Cl)cc2cc1C(N)=O	-1%	-1%	?	-2.2%	?	-28%	-33%	0%
Cc1cc(C)cc(NC(=S)NCc2ccncc2)c1	-14%	1%	-2%	/	9%	56%[activator]	2%	/
Cc1cccc(NC(=O)C2CCN(c3cnccn3)CC2)c1	/	/	20%[46.1 µM]	-2.0%	20%[46.1 µM]	-12%	/	-5%
CCOC(=O)N1CCN(CC(=O)Nc2c(C(=O)OC)[nH]c3cccc(Cl)c23)CC1	4%	4%	-27%	1.1%	-1%	-16%	-13%	?
Cc1ccc(Cn2nc(C)c(NC(=O)CSc3n[nH]c(C)c3[N+](=O)[O-])c2C)cc1	1%	-31%	-18%	-6.3%	13%	-3%	1%	-3%
Cc1oc(-c2ccccc2F)nc1CN1CCC(C(=O)NCCc2ccc(Cl)cc2)CC1	/	/	?	-1.2%	5%[46.1 µM]	-29%	/	1%
O=C(Nc1ncc2c(n1)CC(c1ccccc1)CC2=O)c1ccco1 (stereo not given)	15%	11%	0%	-3.4%	3%	10%	3%	-21%
CN(C)CCNC(=O)CCCNC(=O)Cn1cnc2sc3c(c2c1=O)CCCC3	3%	-6%	0%	1.5%	-14%	13%	0%	-13%
O=C(Nc1ccccc1)/C(=C\c1ccncc1)NC(=O)c1ccccc1	3%	13%	?	-0.9%	26%	46%[activator]	11%	-2%
COC(=O)c1cc(C)ccc1/C=C1/Cc2c(C)cc(C)cc2C1=O	10%	/	25%	/	-17%	-4%	/	/
CCCC(O)(CCC)C(=O)NNc1ccccc1	120%	-6%	0%	0.7%	-5%	0%	-7%	-1%
Cc1ccc(/C=C2/C(=O)NC(=O)N(CC3CCCO3)C2=O)s1 (stereo not given)	4%	8%	-15%	1.2%	7%	?	16%	-4%
COc1ccccc1Oc1nc([N+](=O)[O-])nn1CC(N)=O	10%	0%	-11%[46.1 µM]	/	2%	2%	2%	/
CC(=O)c1cccc(NS(=O)(=O)c2csc(C(N)=O)c2)c1	3%	0%	/	/	/	37%[activator]	5%	/
CCCNS(=O)(=O)c1ccc(OCC(=O)N2CCN(c3ccccc3)CC2)cc1	-15%	0%	-11%[46.1 µM]	/	0%	14%	0%	/
CN(C)N1C(=O)CC(N2CCCC2)C1=O (stereo not given)	?	0%	?	/	-2%	-5%	2%	/
O=C1c2ccccc2C(Nc2ccccc2)N1Cc1ccc2c(c1)OCO2 (stereo not given)	4%	-8%	?	/	6%[46.1 µM]	-23%	-7%	/
Brc1ccccc1-c1ccccc1	-6%	2%	/	2.5%	/	-20%	/	-4%
CCc1ccc2ncc(C(=O)c3ccccc3)c(N3CCOCC3)c2c1	-1%	-1%	/	/	/	0%	2%	/
CCOCCc1nnc(NC(=O)c2cc(OC)c(OC)cc2[N+](=O)[O-])s1	-2%	1%	-24%[46.1 µM]	/	26%	-3%	6%	/
COc1ccc(S(=O)(=O)n2nc(OC(=O)c3c(-c4ccccc4Cl)noc3C)cc2N)cc1	-3%	19%	0%	5.3%	2%	?	10µM*	?
Cc1cccc(OCC(=O)N(Cc2ccc(C)o2)C2CCS(=O)(=O)C2)c1 (stereo not given)	0%	4%	/	/	/	-8%	5%	/
CCCCCn1c(=O)[nH]c2cc(C(=O)NCc3ccc4c(c3)OCO4)ccc2c1=O	-11%	-2%	-17%&-17%	-8.3%	?	-6%	-3%	-15%
COc1cc(OC)cc(-c2cc3nc(C)c(CCC(=O)NCCc4cccc(C)c4)c(C)n3n2)c1	/	/	-7%[46.1 µM]	0.9%	7%[46.1 µM]	-27%	/	-10%
CCOc1ccc(N2C(=O)CC(Cc3ccc(Br)cc3)C2=O)cc1 (stereo not given)	-15%	2%	/	/	/	?	15%	/
CCc1ccccc1-n1cnc2cc(C(=O)O)ccc21	16%	-8%	?	0.8%	9%	-8%	-7%	-6%
C=C1c2cc(CC)ccc2NC(=O)N1c1ccc(C)cc1	-2%	11%	/	2.7%	/	-14%	1%	-5%
CN(CC(=O)NC(c1ccccc1)c1ccccc1)Cc1nc2ccccc2c(=O)[nH]1	8%	-6%	?	0.0%	-21%	3%	-7%	-5%
CCOC(=O)CN(c1ccccn1)S(=O)(=O)c1ccc(OC)cc1	12%	1%	12%[46.1 µM]	/	-1%[46.1 µM]	-2%	3%	/
CN(CCNS(=O)(=O)c1ccc2c(c1)oc(=O)n2C)Cc1ccccc1	1%	-2%	/	-3.1%	/	0%	-5%	-10%
Cc1ccc(NC(=O)C2CCN(S(C)(=O)=O)CC2)cc1C	5%	1%	11%	5.9%	-16%	/	4%	-7%
OCC1(Cc2cccc(F)c2)CCN(Cc2ccc3cccc(F)c3n2)CC1	-2%	1%	?	/	?	-2%	-4%	/
CCOC(=O)c1cc2sccc2n1CC(=O)Nc1ccc(OC)c(OC)c1	3%	1%	0%	-2.9%	?	-7%	6%	?
Cc1ccc(-n2nc3c(=O)n(C(C)C(=O)NCc4ccco4)nc(C)c3c2C)cc1 (stereo not given)	30%	3%	/	0.0%	10%[46.1 µM]	-13%&-16%	9%	-11%
COc1ccccc1N1CCN(S(=O)(=O)CCNC(=O)CC2CCCCC2)CC1	-21%	-1%	-28%	/	?	?	/	/
CCC(=O)NC(c1ccccc1)c1c(OC(C)=O)ccc2ccccc12 (stereo not given)	-4%	-1%	-26%[46.1 µM]	/	-10%	-19%	0%	/
CCOC(=O)c1sc(NC(=O)CSc2nnnn2-c2ccccc2)c(C(=O)OCC)c1C	24%	1%	-1%&-1%	-3.4%	4%	-6%	-19%	-17%
COc1ccc(Cn2cc([N+](=O)[O-])nc2C)cc1[N+](=O)[O-]	2%	0%	?	/	10%	0%	5%	/
CNS(=O)(=O)c1ccc(NC(=O)Nc2ccc3c(c2)OCO3)cc1	7%	19%	15%[46.1 µM]	/	?	18%	12%	/
Cc1cc(O)cc(O)c1C(=O)Cc1ccccc1	3%	-2%	?	-4.5%	?	0%	-25%	3%
Cc1ccccc1OCCCn1c(=O)sc2ccccc21	-22%	-10%	-15%[46.1 µM]	0.4%	12%	30%	-55%	-3%
Cn1nnnc1NCc1cccc(Cl)c1Cl	-13%	0%	?	/	?	0%	0%	/
Cn1nnnc1SCC(=O)Nc1ccccc1C(=O)NCc1ccccc1	2%	0%	3%	-3.6%	?	-20%	6%	9%
Cc1sc(NC(=O)C2CCCC2)c(C#N)c1C	-14%	-15%	?	-18%	3%	34%[activator]	-2%	-17%
O=C(NC1CCCC1)C1CC(=O)N(c2ccccc2)C1 (stereo not given)	11%	0%	-3%[46.1 µM]	/	?	20%	-1%	/
COCCn1c(SCC(=O)N2CCCC2)nnc1-c1ccco1	13%	9%	7%[46.1 µM]	/	8%	8%	9%	/
O=C(C1CCCN(Cc2ccc(F)cc2)C1)N1CCCCC1 (stereo not given)	18%	-3%	/	/	/	-20%	0%	/
c1nc(NC2CCCC2)c2[nH]cnc2n1	-8%	-5%	0%	-0.3%	8%	-18%	3%	-10%
CCOC(=O)c1c(C)oc2nc(C)nc(NCCCN3CCN(c4cc(Cl)ccc4C)CC3)c12	/	/	/	-1.0%	4%[46.1 µM]	-15%	/	-6%
CCOc1ccc(Br)cc1S(=O)(=O)Nc1ccc(C(=O)Nc2ccccc2OC)cc1	-27%	-1%	?	-5.0%	-4%	75%[activator]	2%	16µM*
Cc1c(NC(=O)C(C)OC(=O)c2cccs2)c(=O)n(-c2ccccc2)n1C (stereo not given)	-10%	-8%	5%	-1.1%	-5%	0%	4%	-7%
O=C(Nc1ccc2c(c1)OCO2)C1CC(=O)N(c2ccc(F)cc2)C1 (stereo not given)	10%	0%	-10%[46.1 µM]	/	7%	-5%	3%	/
CCOc1ccc2cc(C#N)c(SCC(=O)N3CCOCC3)nc2c1	-14%	5%	9%	-10%	-28%	27%	2%	-14%
CCCn1c(SCC(=O)NCc2ccco2)nc2c1c(=O)n(C)c(=O)n2C	0%	0%	15%	1.8%	0%	-4%	5%	-2%
COc1ccccc1-c1noc(-c2ccncc2)n1	-23%	-5%	-2%	-4.6%	3%	32%[activator]	-3%	-8%
COc1ccc([N+](=O)[O-])cc1COc1ccc2c(-c3ccccc3)cc(=O)oc2c1	-2%	-1%	9%	0.1%	9%	-9%	11%	?
Cc1ccccc1CNC(=O)c1ccc2nc(SCc3ccc(F)cc3)n(C)c2c1	/	/	2%[46.1 µM]	1.3%	/	-10%	/	10%

(more compounds)
SMILES	RE007 growth inh	SARS PLpro yeast	MARV entry inh	Cruzain inh Det	Lassa entry inh	2A StopGo	NS1 inh	Cruzain inh noDet
Cn1cc(/C=C/c2cc[n+](C)cc2)c2cc(F)ccc21	?	4%	?	/	?	?	?	/
COC(=O)C1=C(C)N(Cc2ccccc2)C(=NCc2ccc3c(c2)OCO3)N[C@H]1c1ccccc1	-6%	-3%&6%	/	/	/	-22%	4%	/
COc1ccc(/C=C/C(=O)C(C)(C)C)cc1OC	-8%	-1%	/	/	/	-4%	-3%	/
CC(=O)c1cccc(NC(=O)c2oc3c(c2C)-c2nn(Cc4ccc(Cl)cc4)cc2CC3)c1	/	/	/	-1.9%	16%[46.1 µM]	-24%	/	-8%
c1ccc2c(c1)CC1(CCCC1)n1nnnc1-2	-10%	-2%	-4%	0.9%	-1%	-18%	2%	-3%
Cc1cc(C)n(CC(O)CN2c3ccccc3Sc3ccccc32)n1 (stereo not given)	?	-7%	6%	-9.6%	6%	?	-127%	?
